Screening data from PubChem.
HPGD block – qHTS Assay for Inhibitors of HPGD (15-Hydroxyprostaglandin Dehydrogenase) | purified HPGD, NADH fluorescence kinetic, PGE2 substrate | Potency, µM, without a hit: at the highest dose activity change, negative = inhibition, usual class: inhibitors | hit rate 4.3% among 150,000; active = well fitted inhibition curve with a large enough effect (not every such curve was filed as active); inconclusive = small, poorly fitted or top-dose-only effect, or another doubt; inactive = no such curve, though single readings can be large or run the other way;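 also: top concentration of the series not given in the record; plate controls included wells without enzyme; inactives centre near -10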
Target sequence (P15428 whole entry, looked up): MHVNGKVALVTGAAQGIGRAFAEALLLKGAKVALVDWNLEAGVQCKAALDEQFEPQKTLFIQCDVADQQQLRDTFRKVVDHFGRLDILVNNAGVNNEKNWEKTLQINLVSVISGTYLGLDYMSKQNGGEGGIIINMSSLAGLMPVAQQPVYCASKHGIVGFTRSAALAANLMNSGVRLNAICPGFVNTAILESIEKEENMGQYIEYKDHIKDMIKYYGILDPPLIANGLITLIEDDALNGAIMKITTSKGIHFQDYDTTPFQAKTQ
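NADH formation kinetics: reaction with 30 uM PGE2 and 1 mM NAD+ (final), 20 nM enzyme, Tris-HCl pH 8 with Tween 20, after 15 min compound preincubation at room temperature. Fluorescence change, last versus first of five reads.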
The depositor's hits bear a star; ? = inconclusive; & = joins results of further samples. % is scaled to controls: 0 for no effect and ±100 for the full control effect; potency is read from the fitted curve at half-maximal effect. Some of the compounds tested. The share of hits here may be higher or lower than overall.

SMILES	HPGD block
CN1CCN(C(=O)CSc2nc(-c3ccncc3)ccc2C#N)CC1	-15%
N#Cc1nc(Cc2ccccc2)oc1NCCc1ccccc1	-28%
COCCn1c(C(C)C)nc2oc3ccccc3c(=O)c2c1=O	-13%
Cc1ccc2nc(NC(=O)C3CCN(S(=O)(=O)c4cccc5nsnc45)CC3)sc2c1	-10%
COc1cc(NC(=O)c2cccs2)c(C(=O)OCC(=O)c2cc(C)n(-c3ccc(F)cc3)c2C)cc1OC	?
C=CCCCCc1nc2ccccc2c(=O)n1N	-19%
O=C(NN1C(=O)C2C3C=CC(C4CC34)C2C1=O)c1ccc(Cl)cc1 (stereo unspecified)	-16%
O=C(Nc1ccc2c(c1)OCCO2)C1CCN(c2nnnn2-c2ccccc2)CC1	-3%
COc1ccc(Oc2ncc3nc(CCc4ccccc4)c(=O)n(CCC#N)c3n2)cc1	-27%
O=C(Cn1cc(C(=S)N2CCOCC2)c2ccccc21)N1CCOCC1	-6%
CCOc1ccc(Cn2c(=O)oc3ccc(C)cc32)cc1OC	-8%
CCCCn1c(=NC(C)=O)c(C#N)cc2c(=O)n3cccc(C)c3nc21	?
CCc1cccc(NC(=O)CCS(=O)(=O)c2cccc3nonc23)c1	-9%
NS(=O)(=O)c1ccc(NC(=S)NC2CCCCCC2)cc1	-12%
c1nc(NCCN2CCOCC2)c2sc3nc(N4CCOCC4)c4c(c3c2n1)CCC4	?
O=C(O)CCCCCNC(=O)c1ccncc1	-6%
O=C(CN(Cc1ccccc1F)S(=O)(=O)c1ccc(Cl)cc1)NCCCO	-5%
CCOC(=O)c1c(C)[nH]c(C)c1C(=O)COC(=O)/C=C/c1ccc(OC(F)F)cc1	-21%
OCCn1c(SCCOc2ccccc2)nc2ccccc21	-16%
CN(C)c1ccc(N=Cc2nc(-c3ccccc3)oc2OC(=O)c2ccccc2)cc1	-13%
CCN(CC(=O)NC1CCS(=O)(=O)C1)S(=O)(=O)c1ccc(C)c(C)c1 (stereo unspecified)	-8%
CCn1c(/C(C#N)=N/O)nc2ccccc21	35µM*
COc1cc(/C=C/c2ccccc2)oc(=O)c1	?
COc1ccc(CCNC(=O)CSc2nc3c(c(=O)n(C)c(=O)n3C)n2C)cc1OC	-9%
CC1(OC(=O)CCc2ccccc2)C(=O)C=C2C=C(c3ccc(C#N)cc3)N(C(CO)CO)C=C2C1=O (stereo unspecified)	-10%
CCc1ccc2[nH]c(=O)c(CN(CCCO)C(=O)NCc3ccccc3)cc2c1	?
Cc1cc(NC(=O)CCC(=O)N(c2ccccc2)C(C(=O)NCC2CCCO2)c2cccnc2)no1 (stereo unspecified)	-11%
Cc1cccc(OCCOc2ccc(/C=N/NC(=O)Cc3nnc(N)s3)cc2)c1	1%
NC(CC(=O)O)c1cccc(OCc2ccccc2)c1 (stereo unspecified)	-4%
CCOC(=O)c1cnc(-c2ccccc2)nc1N(C)C	-14%
CC[C@@]12CCCN3CCc4c(n(c5ccccc45)C(=O)C1)[C@H]32	-4%&4%
Cc1ccc(C(=O)C(C)OC(=O)c2ccccc2[N+](=O)[O-])cc1 (stereo unspecified)	-20%
COc1ccc(/C=C/C(=O)c2ccc(C)c([N+](=O)[O-])c2)cc1O	22µM*
COc1ccc(N)c(OC)c1	0%
O=c1[nH]c(/C=C/c2ccccc2OC(F)F)nc2c1cnn2-c1ccccc1	?
Cc1ccc(C(=O)CSc2nc(-c3ccccc3)ccc2C#N)cc1	-24%
COc1ccc(CN/C(C)=C(/C#N)C(N)=O)cc1OC	-5%
O=Nc1c(-c2c(O)[nH]c3ccccc23)[nH]c2ccccc12	-21%&-13%
Cc1ccc(N2CCN(/N=C/C=C/c3ccccc3)CC2)cc1	-11%
O=C(CCSCCC(=O)NCc1ccc(F)cc1)NCc1ccc(F)cc1	-13%
Cc1cc(C)cc(NC(=O)N2CCC(NC(=O)c3ccccc3C)CC2)c1	5%
O=C(O)C1C(C(=O)Nc2ccc(Cl)cc2)C2C=CC1C21CC1 (stereo unspecified)	-22%
Cc1c(C(=O)NCc2ccccc2)oc2ccc(S(=O)(=O)N3CCC4(CC3)OCCO4)cc12	-13%
Cc1occc1C(=O)N1CCCc2ccccc21	-21%
COc1ccc(OC)c2c1sc(=NC(=O)CN1C(=O)CCC1=O)n2C	-26%
COc1cc(C(O)c2nc3ccccc3n2C)cc(OC)c1OC (stereo unspecified)	0%
Cc1cccc(NC(=O)Cn2c([N+](=O)[O-])cnc2C)c1C	-11%
CC1(C)CC(=O)c2sc(NC(=O)C3CC3)nc2C1	-26%
Cc1cccc(OCCOCCN2CCOCC2)c1C	-6%
O=C1CC(c2ccc(Cl)c(Cl)c2)CC(O)=C1C=NCCN1CCNCC1 (stereo unspecified)	-3%
Cc1nn(CCc2n[nH]c(=S)n2-c2ccc(F)c(Cl)c2)c(C)c1[N+](=O)[O-]	-7%
CCOC(=O)c1c(C)[nH]c(C=C2C(=O)CCCC2=O)c1O	-19%
CCOc1cc2[nH]c(=S)n(CCCN3CCOCC3)c(=O)c2cc1OCC	-10%
CC1(C)Cc2c(c(=S)nc(-c3ccccc3)n2CCO)CO1	35µM*
N/C(=N\OC(=O)C1CCCCC1)c1cccc([N+](=O)[O-])c1	-27%
C[C@H](CCC(=O)O)[C@H]1CC[C@]2(C)[C@@H]3C(=O)C[C@H]4C(C)(C)[C@@H](O)CC[C@]4(C)[C@H]3C(=O)C[C@@]12C	-6%
CCOc1ccccc1C1CC(=O)NC2=C1C(=O)CCC2 (stereo unspecified)	-12%
COC(=O)CSc1nnc(CNC(=O)Cc2ccccc2)n1-c1ccccc1OC	-3%
Cc1ccc(O)c(C2=NOC(O)(C(F)(F)F)C2)c1 (stereo unspecified)	14µM*
O=C(CSc1ncn[nH]1)NN(c1ccccc1)c1ccccc1	1%

(next part)
SMILES	HPGD block
Cn1nc(C(=O)NCc2ccco2)c2ccccc2c1=O	-17%
CCC(C)N(CCNC(=O)CC1Oc2ccccc2NC1=O)C1CCCCC1 (stereo unspecified)	-5%
Cc1ccc(F)cc1NC(=O)c1cccc2nccnc12	0%
Cc1ccc(OC2=NS(=O)(=O)c3ccccc32)cc1	-1%
CCOC(=O)CSc1ccc2nnc(-c3ccncc3)n2n1	?
Clc1ccc(-c2csc3ncnc(Cl)c23)cc1	-10%
FC(F)(F)c1nnc2ccc(N3CCCC3)nn12	-22%
CC(=O)N1CCN(c2nc3cc4c(cc3nc2NS(=O)(=O)c2ccccc2)OCCO4)CC1	-23%
O=C(Nc1c2c(nc3ccccc13)CCCC2)c1ccccc1F	-4%
CCOC(=O)/C(C#N)=C/c1ccc(OCC(=O)Nc2ccc(C)c(C)c2)c(OC)c1	?
CCOC(=O)CN1C(=O)C(O)(CC(=O)c2ccc3c(c2)CCCC3)c2ccccc21 (stereo unspecified)	-4%
O=C(CC1SC(=O)N(Cc2ccccc2)C1=O)Nc1nccs1 (stereo unspecified)	-12%
COc1cccc(C(=O)Cn2c(Br)nc3c2c(=O)n(C)c(=O)n3C)c1	-12%
Cc1ccc2c(c1)c(CC(=O)Nc1ccc(C)c(F)c1)c(C(=O)O)n2C	-28%
C=CCSC1=NC(=O)/C(=C/c2cccs2)S1	32µM*
O=C(NN1C(=O)C2C3c4ccccc4C(c4ccccc43)C2C1=O)c1ccc(Cl)cc1 (stereo unspecified)	-12%
CCCC(C)NNC(=O)c1cc2ccccc2[nH]1 (stereo unspecified)	13µM*
Cc1cc(C)nc(NC(=O)c2cnc3sccn3c2=O)n1	-29%
CCCCN(C(=O)CNC(=O)c1ccco1)C(C(=O)NC1CCCCC1)c1ccc(OC)cc1OC (stereo unspecified)	-6%
Cc1ccc(C(=O)Nc2nc(-c3cc(Cl)sc3Cl)cs2)cc1	?
COc1cccc(/C=N/N2CCN(c3ccccc3OC)CC2)c1	-1%
C=CCOc1nc(N(C)C)nc(N(C)C)n1	-10%
FCCCOc1ccc(-c2ccnc(-c3ccccc3)n2)cc1	-11%
COCc1cc(/C=N\NC(=O)Cc2ccc(Cl)cc2)ccc1OC	-6%
CCOC(=O)N1CCN(Cc2nc3c(c(=O)n(C)c(=O)n3C)n2Cc2cccc(C)c2)CC1	-13%
N#Cc1cc(NC2CCCC2)c([N+](=O)[O-])cc1C#N	-21%
Cc1cc(OC(=O)c2ccc(Cl)cc2Cl)nc(C)n1	-25%
CCN(CC)CCNC(=O)c1c(O)c2cc(OC)c(OC)cc2[nH]c1=O	-28%
CCOc1ccc(-n2nc(C(=O)NCCOC)c3ccccc3c2=O)cc1	-1%
CCOC(=O)C(CC)(CC)/C(C)=N/NC(=O)CC#N	-13%
COc1ccc(-c2cc3n(n2)CCc2nc4ccccc4n2-3)cc1	-14%
CC(=O)N(Cc1ccc(F)cc1)C1=C(NCc2ccccc2)C(=O)c2ccccc2C1=O	-8%
O=C(CN1CCCC1)Nc1ccc(Oc2ccc(NC(=O)CN3CCCC3)cc2)cc1	25µM*
O=C1CC[C@H](N2C(=O)c3ccccc3C2=O)C(=O)N1	-10%&-13%
COc1ccc(NC(=O)c2csc3c2CCCC3)cc1	-6%
O=C(CSc1ncnc2c1cnn2-c1ccccc1)Nc1ccc2c(c1)OCO2	-17%
C/C(CC(=O)Nc1cccc2c1CCCC2)=N\NC(=O)c1cccc2ccccc12	-10%
O=C1c2ccccc2C(=O)N1Cc1cc(-c2ccccc2Cl)no1	-15%
Cc1ccc(C)c(N2CCN(C(=O)c3csc4ccccc34)CC2)c1	-11%
O=C(Cn1cnc2c(cnn2-c2ccccc2)c1=O)Nc1cc(S(=O)(=O)N2CCOCC2)ccc1Cl	-12%
N#CC(C#N)=C1C=CC=CN1/C(=C\c1ccco1)C(=O)c1ccc(Br)cc1	16µM*
CCOC(=O)C1CCN(C(=O)c2ccccc2NS(=O)(=O)c2ccc(F)cc2)CC1	-2%
CCOC(=O)C(CCc1ccccc1)NC(C)C(=O)N1CCCC1C(=O)O (stereo unspecified)	-9%
O=C(CC1S/C(=N/N=C/c2cccs2)NC1=O)Nc1ccc(Cl)c(Cl)c1 (stereo unspecified)	-17%
COc1cc(-c2nc3ccc4ccccc4c3c3c2CCC3)cc(OC)c1O	-28%
O=C1CCCN1CCC1CCN(C(=O)Nc2ccccc2)CC1	-13%
N#CC1(O)CCCCC1	-5%
Cc1ccc(SCCNC(=O)/C=C/c2ccc(Cl)cc2)cc1	-13%
COC(=O)c1sc(NC(=O)C2c3ccccc3Oc3ccccc32)c(C(=O)OC)c1C	?
Cc1[nH]c2ccccc2c1C(=O)C(=O)N1CC=C(c2ccccc2)CC1	?
CCOC(=O)CC(C(=O)OCC)P(=O)(c1ccccc1)c1ccccc1 (stereo unspecified)	-3%
Cc1ccsc1C(=O)OCC(=O)Nc1c(C)n(C)n(-c2ccccc2)c1=O	-11%
CS(=O)(=O)N1CCC[C@@]2(CCN(c3ccncc3)C2)C1	-8%
COc1ccc(C2(C(=O)N3CCCC3)CCOCC2)cc1OC	-4%
COc1ccc2cc(C(=O)OC(C)C)sc(=O)c2c1OC	?
O=C(N/C(=C\c1ccc([N+](=O)[O-])cc1)C(=O)N1CCCCC1)c1ccccc1Br	-1%
COc1cccc(/C=N/NC(=O)C(=O)Nc2ccccc2OC(F)(F)C(F)F)c1O	-6%
Cc1ccc(N=Nc2c(=O)[nH]n3c(C)cc(C)nc23)cc1	-9%
CC1CCN(C(C)C(=O)Nc2ccccc2-c2ccccc2)CC1 (stereo unspecified)	-1%
NC(=O)c1ccccc1NC(=O)CN1CCOCC1	-11%
CCC(O)CNc1nc(-n2nc(C)cc2C)nc2sc3c(c12)CCCC3 (stereo unspecified)	-6%
N=C(N)SCc1cn2ccccc2n1	-1%
CC(C)[C@@H](CC(=O)N[C@@H]1CCNC[C@H]1C(=O)N[C@H](CC(=O)N[C@@H](CCC(=O)O)CC(=O)O)Cc1c[nH]c2ccccc12)NC(=O)C[C@H](Cc1c[nH]c2ccccc12)NC(=O)[C@@H]1CCCC[C@H]1N	-6%

Filtered by structure: the entries above with an NH in an aromatic ring.
SMILES	HPGD block
CCOC(=O)c1c(C)[nH]c(C)c1C(=O)COC(=O)/C=C/c1ccc(OC(F)F)cc1	-21%
CCc1ccc2[nH]c(=O)c(CN(CCCO)C(=O)NCc3ccccc3)cc2c1	?
O=c1[nH]c(/C=C/c2ccccc2OC(F)F)nc2c1cnn2-c1ccccc1	?
O=Nc1c(-c2c(O)[nH]c3ccccc23)[nH]c2ccccc12	-21%&-13%
Cc1nn(CCc2n[nH]c(=S)n2-c2ccc(F)c(Cl)c2)c(C)c1[N+](=O)[O-]	-7%
CCOC(=O)c1c(C)[nH]c(C=C2C(=O)CCCC2=O)c1O	-19%
CCOc1cc2[nH]c(=S)n(CCCN3CCOCC3)c(=O)c2cc1OCC	-10%
O=C(CSc1ncn[nH]1)NN(c1ccccc1)c1ccccc1	1%
CCCC(C)NNC(=O)c1cc2ccccc2[nH]1 (stereo unspecified)	13µM*
CCN(CC)CCNC(=O)c1c(O)c2cc(OC)c(OC)cc2[nH]c1=O	-28%
Cc1[nH]c2ccccc2c1C(=O)C(=O)N1CC=C(c2ccccc2)CC1	?
Cc1ccc(N=Nc2c(=O)[nH]n3c(C)cc(C)nc23)cc1	-9%
CC(C)[C@@H](CC(=O)N[C@@H]1CCNC[C@H]1C(=O)N[C@H](CC(=O)N[C@@H](CCC(=O)O)CC(=O)O)Cc1c[nH]c2ccccc12)NC(=O)C[C@H](Cc1c[nH]c2ccccc12)NC(=O)[C@@H]1CCCC[C@H]1N	-6%
